WNV protease inh: WNV NS2B-NS3 proteinase inhibition | z-score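 (tested at a level between 10 and 100 µM)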 | hit rate 0.18% among 65,000 | WNV NS2B-NS3 protease, fluorogenic substrate Ex360/Em465; hits give low values;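 active = z-score at -3 or under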;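 also: score is relative to mean and spread of the compound wells of a plate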
Target sequence (P06935 1371-1501 limits assumed): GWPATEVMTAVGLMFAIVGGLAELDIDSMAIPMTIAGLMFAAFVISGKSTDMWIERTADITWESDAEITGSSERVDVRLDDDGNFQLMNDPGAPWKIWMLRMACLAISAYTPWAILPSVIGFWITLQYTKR
Target sequence (P06935 1502-1679 limits assumed): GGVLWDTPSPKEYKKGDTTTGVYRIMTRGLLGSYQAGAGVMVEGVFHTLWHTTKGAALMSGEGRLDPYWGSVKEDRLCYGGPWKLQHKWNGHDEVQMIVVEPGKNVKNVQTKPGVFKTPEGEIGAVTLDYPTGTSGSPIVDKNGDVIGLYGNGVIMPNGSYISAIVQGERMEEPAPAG
MT1-MMP promoter: inhibitors of MT1-MMP promoter transcription, cell-based, luciferase reporter, luminescence (AID 618); MT1-MMP promoter luciferase reporter cells, luminescence; calls from a first round at 10 µM; hits with a dose series show EC50 in µM; hit rate 0.62% among 87,000;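 active = over half of the reporter light lost at 10 µM or EC50 under 50 µM; inactive = the rest and hits that failed the dose series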;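 also: actives suppress MT1-MMP promoter-driven transcription so potencies describe inhibitors; HT1080 fibrosarcoma cells; overnight exposure; toxic or luciferase-blocking compounds were not removed from the actives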
Hsc70: Hsc70 inhibitors, probe displacement, primary screen, biochemical, fluorescence polarization (AID 568); Hsc70 fluorescence polarization, probe displacement; higher % means a stronger effect; strong numbers were not always called active; displacement, % at 20 µM, or IC50 in µM where a hit was titrated; 83,000 tested, under 10 active;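 active = displacement above 50% without optical interference and an IC50 on retest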;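 also: ATPase domain with a fluorescein-tagged ATP probe; 0% = vehicle and 100% = excess ADP; read after one hour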
* = called active by the depositor; i = inactive; nt = no result given; + = active, no number.

SMILES	WNV protease inh	MT1-MMP promoter	Hsc70
FC(F)Sc1ccc(N=C2NN=C(c3ccc4c(c3)OCCO4)CS2)cc1	nt	i	-8.5%
COc1ccc(-n2c(Cc3cc(=O)[nH]c(=O)[nH]3)nnc2SCC(=O)N2CCC(C)CC2)cc1	0.86	i	-2.4%
COc1ccc(-n2nc3cc(C)c(NC(=O)c4cccnc4)cc3n2)cc1	-0.46	i	2.2%
CC(=O)c1ccc(NC(=O)C2CCCN2S(=O)(=O)c2ccc(F)cc2)cc1 (stereo unspecified)	0.08	i	2.9%
CCCC(=O)Nc1ccc2c(c1)nc(CN1CCN(C(C)=O)CC1)n2C	nt	i	3.6%
COc1ccc(N2C(=O)c3ccc(NC(C)=O)cc3C2=O)cc1	0.76	i	1.2%
O=C(c1cnn2c(C(F)(F)F)cc(-c3cccs3)nc12)N1CCN(Cc2ccccc2)CC1	nt	i	-1.1%
CCn1c(SCC(=O)Nc2nc(-c3ccccc3)cs2)nnc1-c1ccccc1	-0.08	i	3.8%
CC(C)(C)Cc1nnc(NS(=O)(=O)Cc2ccccc2)s1	-0.29	i	-1.9%
Cc1ccnc(NC(=O)c2cc(S(=O)(=O)N3CCCCC3)ccc2Cl)c1	-1.1	i	-0.9%
CC(=O)c1ccc(-n2nncc2C(C)(C)C)cc1	-1.4	i	8.5%
Nc1nc2n(n1)C1(CCCCC1)C1=C(CCCC1)N2	1.4	i	-1.6%
CC1(C)CC(=O)c2cnc(NC(=O)Cc3ccc(Cl)cc3)nc2C1	0.0086	i	1.7%
CCCCN1CC(O)=C(c2nc(-c3ccc(Cl)cc3)cs2)C1=N	nt	i	-1.3%
CS(=O)(=O)N(CC(=O)Nc1ccc(C(N)=O)cc1)C1CCCCC1	nt	i	-2.8%
CCOC(=O)N1CCC(Nc2nc3ccccc3n3cnnc23)CC1	-1.2	i	8.6%
CCOC(=O)N1CCC(NC(=O)C2CCCN(c3nc4ccccc4o3)C2)CC1 (stereo unspecified)	-1	i	-6.1%
C=C(C)CC1N(c2cccc(OC)c2)C(=O)C2C(C(=O)O)C3C=CC21O3 (stereo unspecified)	1.6	i	3.5%
O=C(O)C1Nc2c(C(=O)N3CCOCC3)cccc2C2C=CCC12 (stereo unspecified)	1.6	i	3.0%
CC(C)(C)c1ccc(C(=O)Nc2cnccn2)cc1	-0.7	+	-0.9%
CCOC(=O)Nc1ccc(C(=O)Oc2ccccc2)c(O)c1	1.7	i	4.3%
C1=Nc2c(Nc3ccccc3)ncnc2Oc2ccccc21	1.3	i	-1.4%
COc1ccccc1NC(=O)NC(=O)N(C(C)C)S(C)(=O)=O	nt	i	5.3%
COc1ccc(CC(=O)c2cc(OC)c(OC)cc2CC(=O)O)cc1OC	0.79	i	-5.7%
Cc1cc(C)n(-c2cc(-n3nc(C)cc3C)ncn2)n1	1	i	4.1%
CCN(CC)C(=O)C1CCCc2c1[nH]c1ccc(Cl)cc21 (stereo unspecified)	-0.6	i	4.0%
O=C(Nc1ccc2c(c1)OCO2)c1cccc(F)c1	-1	i	4.9%
O=C(c1cc(-c2ccccc2)nc2ccccc12)N1CCN(c2ccccn2)CC1	-0.32	i	-4.9%
O=C(NCCn1ccc2ccccc21)c1ccc(S(=O)(=O)N2CCOCC2)cc1	-0.62	i	2.9%
CCOc1ccc(N(CC(=O)OC)S(=O)(=O)c2ccc(OC)c(OC)c2)cc1	1.4	i	-2.3%
N#Cc1c(SCC(N)=O)nc(-c2ccccc2)c2c1CCCC2	0.24	i	-3.0%
COc1ccc(-n2c(C)cc(C(=O)CSc3nnc(-c4ccoc4C)n3C)c2C)cc1	0.22	i	-1.1%
Cn1c(=O)c2c3c(sc2n2c(SCc4ccc5c(c4)OCO5)nnc12)COC(C)(C)C3	-0.26	i	-0.6%
COc1cc2c(C)nc3onc(-c4ccccc4)c3c2cc1OC	-1.1	i	-3.7%
CC1CCc2nn(CC(=O)NCc3ccc4c(c3)OCO4)cc2C1 (stereo unspecified)	0.03	i	0.1%
COc1ccc(-n2c(Cn3c(=O)sc4ccccc43)nnc2SCC(=O)N2CCCC2)cc1	-0.48	i	0.5%

Full records as entered above. Order of screens: WNV protease inh | MT1-MMP promoter | Hsc70
COc1cc2c(C)nc3onc(-c4ccccc4)c3c2cc1OC in the list: -1.1 | i | -3.7%
COc1ccc(-n2c(C)cc(C(=O)CSc3nnc(-c4ccoc4C)n3C)c2C)cc1 in the list: 0.22 | i | -1.1%

Additional entries:
SMILES	WNV protease inh	MT1-MMP promoter	Hsc70
O=C(C1CC1)N1CCc2cc(Br)cc(S(=O)(=O)N3CCCCCC3)c21	-0.68	i	-3.9%
CCCn1c(C)cc(C(=O)COC(=O)c2cc(S(=O)(=O)NCC(C)C)c(Cl)cc2Cl)c1C	nt	i	2.6%
Cc1cc(C)c(C#N)c(Nc2ccc3c(c2)OCCO3)n1	-0.4	i	-4.4%
Cc1cc2c(=O)n(Cc3ccco3)c(SCC(=O)c3ccc(Cl)s3)nc2s1	0.21	i	-6.5%
COc1cc(Br)cc2cc(C(=O)N3CCN(C(=O)c4ccco4)CC3)c(=O)oc12	0.4	i	-2.8%
CCC(=O)N1C(C(=O)O)CSC1c1ccc(OC)cc1 (stereo unspecified)	0.2	i	-2.2%
CC(C)n1nc(C(=O)Nc2nnc(SCc3c(Cl)cccc3Cl)s2)c2ccccc2c1=O	nt	i	-3.3%
COc1ccc(C2SCCN2S(=O)(=O)c2ccccc2)cc1OC (stereo unspecified)	-0.8	i	5.4%
O=C(CSc1nnc(-c2ccccc2)n1C1CCCCC1)Nc1ccc(S(=O)(=O)Nc2ccccn2)cc1	nt	i	2.6%
CCn1c(C)c(C(C)=O)c(N2CCN(C(=O)c3ccco3)CC2)nc1=S	1.4	i	10%
Cc1ccc(S(=O)(=O)C2(C(=O)N3CCN(C4CCCCC4)CC3)CC2)cc1	-0.03	i	2.6%
O=C(Nc1ccccc1)N(Cc1ccccc1)C1=NCCS1	nt	i	-6.3%
CCOC(=O)c1ccccc1NC(=O)CSc1nnnn1C1CCCCC1	-0.32	i	6.8%
O=C(C1CCC1)N1CCc2cc(S(=O)(=O)NCc3ccccn3)ccc21	nt	i	3.5%
CCN1CCN(CCNC(=O)C2CCCN(Cc3nc(-c4cccc(Cl)c4)oc3C)C2)CC1 (stereo unspecified)	-1.2	i	-0.5%
Cc1ccc(S(=O)(=O)n2nc(C)cc2C)cc1	nt	i	-1.1%
CCOC(=O)C(NC(C)=O)(N1CCc2ccccc2C1)C(F)(F)F (stereo unspecified)	-0.75	i	1.2%
COC(=O)C1=C(C)NC(C)=C(C(=O)OC)C1c1ccccc1OCc1c(C)no[n+]1[O-]	-0.28	i	-6.3%
COc1ccc(S(=O)(=O)Nc2ccc(C(F)(F)F)cc2)cc1OC	0.81	i	0.8%
COc1ccc(S(=O)(=O)Nc2ccccc2SC)cc1C	-0.52	i	4.6%
O=C(NC1CCCC1)C(c1cccnc1)N(C(=O)c1csnn1)C1CCCC1 (stereo unspecified)	nt	i	0.6%
O=C(Cc1cccc2ccccc12)N/N=C/c1ccc(OC(=O)/C=C/c2ccco2)cc1	nt	i	-2.5%
O=C(NCc1cccnc1)C1CCCN(S(=O)(=O)c2ccc(Cl)cc2)C1 (stereo unspecified)	-0.81	i	0.9%
O=C(Nc1ccon1)c1ccc(Br)o1	-0.02	i	3.0%

Next section; the last 4 above are carried over.
SMILES	WNV protease inh	MT1-MMP promoter	Hsc70
O=C(NC1CCCC1)C(c1cccnc1)N(C(=O)c1csnn1)C1CCCC1 (stereo unspecified)	nt	i	0.6%
O=C(Cc1cccc2ccccc12)N/N=C/c1ccc(OC(=O)/C=C/c2ccco2)cc1	nt	i	-2.5%
O=C(NCc1cccnc1)C1CCCN(S(=O)(=O)c2ccc(Cl)cc2)C1 (stereo unspecified)	-0.81	i	0.9%
O=C(Nc1ccon1)c1ccc(Br)o1	-0.02	i	3.0%
Cc1ccc(C(=O)NCCn2cc(SCC(=O)Nc3cc(C)on3)c3ccccc32)cc1	0.41	i	0.7%
Cc1c(CNC(=O)c2cnn3c2NC(c2ccccc2)CC3C(F)(F)F)cnn1C (stereo unspecified)	0.22	i	0.5%
CCCn1c(SCC(=O)N2CCCc3ccccc32)nnc1-c1ccco1	1.7	i	-3.8%
CCCN(/C=N/c1sc2c(c1C#N)CCCCC2)CCC	nt	i	-1.1%
CN(C)c1ccc(CNC2C3CC4CC(C3)CC2C4)cc1 (stereo unspecified)	nt	i	3.7%
CCn1cc(C(=O)NCCCOC)c(=O)c2cc(S(=O)(=O)N(C)C)ccc21	0.17	i	0.9%
CC1Cc2nc(SCC(N)=O)n(C)c(=O)c2S1 (stereo unspecified)	-0.6	i	-0.4%
O=C(Cc1ccccc1)NCc1ccc2c(c1)OCO2	nt	i	2.0%
CC1CCN(c2[nH]c(=S)c(C#N)c3c2CCCC3)CC1	0.79	i	0.0%
CCOC(=O)Cc1csc(NC(=O)c2cccs2)n1	-0.47	i	2.7%
CC(C)(C)c1[nH]nc2c1C(C1C=CCCC1)C(C#N)=C(N)O2 (stereo unspecified)	nt	i	0.1%
Cc1cc(=O)[nH]c(SCC(=O)NCCc2ccccc2)n1	nt	i	1.9%
CCc1nnc(NC(=O)c2ccc(S(=O)(=O)N(CC)Cc3ccccc3)cc2)o1	0.31	i	1.2%
CCOC(=O)Cc1nnc(NC(=O)CSc2ccc(Cl)cc2)s1	nt	i	1.7%
CN(C)C(=O)CN(c1ccc2c(c1)OCO2)S(C)(=O)=O	nt	i	-1.7%
C=CCc1cc(OC)ccc1OCC(O)CN1CCN(c2ccc(OC)cc2)CC1 (stereo unspecified)	0.37	i	-2.1%
Cn1c(=O)cc(SCC(=O)Nc2ccccn2)c2ccccc21	0.55	i	5.0%
Cc1nnc(N(C)C(=O)c2ccccn2)s1	nt	i	-1.1%
CCN(CC)C(=O)CSc1nc(O)c(Cc2ccccc2)c(=O)n1-c1ccccc1	nt	i	2.2%
c1ccc(-c2nc3cc4ccccc4cc3[nH]2)nc1	nt	0.8µM*	6.4%
O=C(COC(=O)c1ccco1)NCC1CCCO1 (stereo unspecified)	1.5	i	-2.3%
COc1ccc(OCC(=O)N2CCN(C(=O)COc3ccc(Br)cc3)CC2)cc1	0.44	i	9.3%
Cc1onc(-c2ccccc2)c1C(=O)NC(C)C1CCCO1 (stereo unspecified)	0.13	i	3.2%
COc1cccc(-c2csc3nnc(SCC(=O)c4ccc(NC(C)=O)cc4)n23)c1	-0.54	i	-6.3%
C=CCN1C(=O)CN=C1Nc1cc(C)cc(C)c1	-0.71	i	-12%
O=C(CCn1nnc2ccccc21)N1CCN(c2ccccc2)CC1	1.7	i	-4.9%
CCCCOC(=O)C(C#N)c1nc2ccccc2nc1N1CCN(Cc2ccc3c(c2)OCO3)CC1 (stereo unspecified)	-0.65	i	2.8%
COC(=O)c1ccc(NC(=O)Cn2nnc3ccccc32)cc1	-0.99	i	-2.5%
COCCn1c(C)cc2c(c1=O)C(c1ccccc1F)C(C#N)=C(N)O2 (stereo unspecified)	-0.66	i	-0.2%
CC(=O)Nc1cccc(OCC(O)Cn2c(C)nc3ccccc32)c1 (stereo unspecified)	nt	i	-2.2%
c1ccc(-c2noc(-c3ccc4ccccc4c3)n2)nc1	-0.02	+	7.5%
Cc1ccccc1N1CC(=O)N(c2ccccc2C)CC1=O	nt	i	-1.3%
Cc1ccc2c3c(c(SCC(=O)Nc4nonc4C)nc2c1)CCCC3	0.28	i	-4.1%
CCc1cc2ccc(OC)cc2nc1SCC(=O)Nc1cc(C)on1	-0.58	i	-6.0%
CC(C)(C)C(=O)/C=c1\[nH]c(=O)/c(=C\c2ccc(C#N)cc2)s1	0.08	i	-0.9%
CC(CN1CCCCC1)OC(=O)C1c2ccccc2Oc2ccccc21 (stereo unspecified)	nt	i	-2.2%
O=S(=O)(c1ccccc1)c1nc(-c2ccco2)oc1NCc1ccco1	-0.14	i	1.4%
CN(Cc1ccccc1)c1ccc(S(=O)(=O)N2CCOCC2)cn1	nt	i	3.6%
CCCN1C(=O)c2cc(C(=O)O)ccc2C1O (stereo unspecified)	-2	i	-1.3%
Cc1ccccc1-n1c(C)nnc1SCc1nc2ccccc2s1	-0.92	i	7.8%
Cn1c(CCNC(=O)c2ccccc2)nc2ccccc21	-1.1	i	-2.3%
Cc1nc2sc(C(c3ccco3)N3CCN(c4ccc(F)cc4)CC3)c(O)n2n1 (stereo unspecified)	0.22	i	-3.2%
CCOC(=O)N1CCN(C(=O)C2CCC(CNS(=O)(=O)c3ccc(Cl)cc3)CC2)CC1 (stereo unspecified)	-0.82	i	-3.6%
COC(=O)C1=CN(CC2CCCO2)C=C(C(=O)OC)C1c1ccccc1C(F)(F)F (stereo unspecified)	nt	i	-2.1%
CCOCCCNC(=O)c1c[nH]c2ccc(S(=O)(=O)Nc3cccc(OC)c3)cc2c1=O	-0.02	i	0.9%
C/C=C/CSc1nc2c(c(=O)[nH]c(=O)n2C)n1Cc1ccc(C)cc1	-0.2	i	0.7%
Cc1nc(NCCCN2CCOCC2)c2oc3ccccc3c2n1	-0.66	i	1.8%

Some of these compounds in order of SMILES length, ascending.
SMILES	WNV protease inh	MT1-MMP promoter	Hsc70
Cc1ccccc1-n1c(C)nnc1SCc1nc2ccccc2s1	-0.92	i	7.8%
CN(Cc1ccccc1)c1ccc(S(=O)(=O)N2CCOCC2)cn1	nt	i	3.6%
CCOCCCNC(=O)c1c[nH]c2ccc(S(=O)(=O)Nc3cccc(OC)c3)cc2c1=O	-0.02	i	0.9%

Screening data deposited in PubChem by several laboratories.

Not a hit list; about 0.77% have a hit in one of these screens.
